Compound activity deposited in PubChem BioAssay by ICCB-Longwood Screening Facility, Harvard Medical School.
GIV-Gai inh = inhibitors of GIV peptide binding to Galpha-i3, primary screen, biochemical, fluorescence polarization, FITC-GIV GBA peptide, rat Galphai3 | percent of control (FP), % (no concentration beside the values) | Guanine nucleotide-binding protein G(i) subunit alpha-3 (Rattus norvegicus), P08753 | 90 min; active compounds read low; scaled: aluminum fluoride 0%, vehicle 100% | 210,000 compounds, 0.42% hits | AID 1224905, 2016;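 active = replicate mean at 85% of control or lower, very high polarization wells dropped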;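 note: wells of about 15 µL received 100 nL stock; the first replicate is given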
Target sequence (P08753 whole entry, looked up): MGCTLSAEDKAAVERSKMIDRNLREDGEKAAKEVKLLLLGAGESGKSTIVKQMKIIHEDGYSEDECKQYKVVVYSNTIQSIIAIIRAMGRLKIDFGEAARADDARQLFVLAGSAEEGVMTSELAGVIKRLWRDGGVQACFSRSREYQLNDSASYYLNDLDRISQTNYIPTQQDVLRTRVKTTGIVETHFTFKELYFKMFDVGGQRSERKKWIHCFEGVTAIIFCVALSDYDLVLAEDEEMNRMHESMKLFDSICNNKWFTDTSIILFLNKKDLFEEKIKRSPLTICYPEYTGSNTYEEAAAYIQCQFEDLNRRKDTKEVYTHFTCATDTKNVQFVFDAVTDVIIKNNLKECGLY
HCMV NEC inh = inhibitors of HCMV UL50-UL53 interaction, biochemical, HTRF; HCMV UL50-UL53 nuclear egress complex (human cytomegalovirus); normalized percent inhibition; inhibition, % (concentration not given with the values); 190,000 compounds, 0.15% hits;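 active = both replicates at 50% or more, plus weaker picks with an unusually low signal ratio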;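 note: stock transfer was 100 nL into about 20 µL; 0% = negative control wells and 100% = wells with untagged competitor protein; inactives centre near -12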
Sa growth inh = S. aureus growth inhibition at 42 and 30 °C, primary screen, LtaS inhibitor project, RN4220, two temperatures | OD600, 20 h, 42 °C; active compounds read low | relative growth, % (concentration not given with the values) | 170,000 compounds, 0.53% hits | AID 720641, 2013;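 active = growth at 42 °C up to 50% and 20 or more points under that at 30 °C, or under 10% at both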;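 note: 300 nL library stock went into each well; scaled to the means of positive and negative controls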
Sa growth inh second temp = further read-out of Sa growth inh, marked with its call; relative growth, %; measured here: growth at 30 °C;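 optical density after 20 h as mean of two plates; 100% = untreated growth and lower means inhibition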
Numbers without * were called inactive; nt = no result given; & = joins results of further samples.

Each structure is followed by: GIV-Gai inh | HCMV NEC inh | Sa growth inh | Sa growth inh second temp
[1] CCOC(=O)c1cnn(-c2ccccc2)c1N
    96 | -6 | 110 | 85
[2] Cc1cc(NC(=O)CCN2C(=O)/C(=C3\SC(=S)N(CCC(=O)Nc4cc(C)on4)C3=O)SC2=S)no1
    101 | -32 | 88 | 93
[3] O=C(O)C12CC3CC(CC(C3)C1)C2
    nt | -18 | 132 | 81
[4] N#C/C(=C(/O)CCN1C(=O)c2ccccc2C1=O)c1nc2ccccc2s1
    nt | 10 | 100 | 90
[5] O=C(OCc1cc(=O)n2cc(Br)ccc2n1)C1CC(=O)N(CCc2ccccc2)C1 (stereo unspecified)
    nt | -7 | 96 | 106
[6] O=C(CSc1ccc(Cl)cc1)c1ccc[nH]1
    nt | -14 | 113 | 113
[7] CSc1nc2nc(C)c(CCC(=O)OCC(=O)Nc3ccc(F)cc3)c(C)n2n1
    nt | -16 | 93 | 93
[8] CC(C)c1cc(C(=O)Nc2c(Cl)cccc2Cl)no1
    96 | -3 | 85 | 88
[9] O=C(CC(=O)c1ccc2c(c1)OCCO2)c1ccccc1
    94 | -5 | 52 | 53
[10] CSC1=NC2(CCN(C(=O)NCc3ccccc3)CC2)N=C1c1ccccc1
    108 | -13 | 113 | 93
[11] O=c1oc2ccccc2cc1-c1cn2cc(Cc3cc(Cl)ccc3Cl)sc2n1
    96 | -34 | 83 | 85
[12] CC(C)C(=O)Nc1ccc(-c2nc3ccccc3c(=O)o2)cc1
    104 | -7 | 108 | 66
[13] O=C1NC(=S)NC(=O)C1=C1C=C(c2ccccc2)N(CCN2CCOCC2)C2=C1CCCC2
    98 | -12 | 86 | 84
[14] CCOc1ccc(N=C2SC(C(=O)Nc3ccc(C(=O)O)cc3)CC(=O)N2Cc2ccccc2)cc1 (stereo unspecified)
    103 | -4 | nt | nt
[15] Cc1c(-c2nnc(SCC(=O)Nc3ccc(Cl)cc3)o2)nnn1-c1ccc(F)cc1
    105 | nt | 95 | 82
[16] COc1cc2c(cc1NC(=S)Nc1ccc3c(c1)OCO3)oc1ccccc12
    103 | -14 | 119 | 97
[17] N#Cc1ccccc1NC(=S)NCc1ccccc1
    nt | 10 | 104 | 114
[18] Cc1ccc(NCc2nnc(SCC(=O)N(Cc3ccccc3)C(C)(C)C)o2)c(C)c1
    99 | 0 | 87 | 87
[19] CCSc1nnc(SCC(=O)N2CC(=O)Nc3ccccc32)s1
    nt | 0 | 99 | 88
[20] Cc1cc(C)nc(NS(=O)(=O)c2ccc(NC(=O)COc3ccccc3)cc2)n1
    102 | -8 | nt | nt
[21] CCCCNC(=O)CSc1nnc(-c2ccncc2)o1
    107 | 7 | nt | nt
[22] Cc1ccc(S(=O)(=O)c2nc(S(C)(=O)=O)sc2NCc2ccccc2)cc1
    99 | -2 | 129 | 105
[23] CC(=O)Nc1ccc(S(=O)(=O)N(CCO)Cc2ccccc2)cc1
    96 | -10 | 95 | 84
[24] CCCCNC(=O)c1c(-c2ccccc2)nc2n1CCS2(=O)=O
    99 | 12 | nt | nt
[25] O=C(Nc1ccccc1)Nc1ccc(C(F)(F)F)cn1
    105 | 2 | 103 | 105
[26] CCOc1cc(C(=O)Nc2ccc(OC)nc2)ccc1OCC(=O)N1CCCCC1
    nt | -3 | 106 | 79
[27] COc1ccc2[nH]c(=O)c(CN(C(=O)c3cccc(Cl)c3)c3cccc(C)c3)cc2c1
    104 | -15 | 115 | 86
[28] Fc1ccc(CNc2ccc(Cl)nn2)cc1
    104 | -28 | nt | nt
[29] CCCCNC(=O)c1cc(-c2ccc(F)cc2)[nH]c1C
    103 | 10 | 102 | 102
[30] CCc1ccc2nc(Nc3ncc4c(n3)CCCC4=O)nc(C)c2c1
    118 | -6 | nt | nt
[31] Cn1c(=O)c(-c2noc(CCC(=O)Nc3cccc(Cl)c3)n2)nn(-c2ccc(F)cc2)c1=O
    105 | -69 | nt | nt
[32] O=C(COC(=O)Cc1ccccc1F)NC(c1ccccc1)c1ccccc1
    nt | -17 | 102 | 88
[33] COC(=O)C1CCN(C(=O)c2ccc(OC)cc2)CC1
    99 | -2 | nt | nt
[34] CCOc1ccc(NC(=O)Cn2c(=O)cc(C)c3c(C)nn(-c4ccc(CC)cc4)c32)cc1
    103 | nt | 103 | 103
[35] Cc1cccc(NS(=O)(=O)c2ccc(-n3cccn3)cc2)c1C
    112 | nt | 116 | 85
[36] O=C1NC(=O)C(C(=S)Nc2ccccc2)C(=O)N1
    94 | -12 | 100 | 83
[37] O=C(NCc1cccnc1)c1ccc(CN2C(=O)CCn3nccc32)cc1
    106 | -7 | nt | nt
[38] COc1ccc(-c2noc(-c3cccnc3N3CCN(c4ccc(OC)cc4)CC3)n2)cc1
    102 | -10 | 86 | 90
[39] CCCc1nn2c(=O)cc(COc3ccc(NS(=O)(=O)c4ccc(Cl)cc4)cc3)nc2s1
    104 | -16 | 86 | 90
[40] COc1nc(N(C)C)nc(N2CC(=O)N(c3ccccc3)C2=N)n1
    99 | -12 | nt | nt
[41] O=C(c1cc(C2CC2)nn1-c1ccccc1)N(Cc1ccco1)Cc1cccs1
    nt | 0 | 98 | 89
[42] Cc1ccc(NNC(=S)NCCCN2CCOCC2)c(C)c1
    nt | -13 | 78 | 92
[43] CC1CN(/C=C/C(=O)C(F)(F)F)CC(C)O1 (stereo unspecified)
    nt | -17 | 91 | 86
[44] O=C1CN(C(=O)c2ccc(S(=O)(=O)N3CCCC3)cc2)C(c2ccc(F)cc2)c2cc(F)ccc2N1 (stereo unspecified)
    106 | -10 | nt | nt
[45] O=C1CS(=O)(=O)CC(=O)N1c1ccc(Cl)c(Cl)c1
    96 | -2 | nt | nt
[46] COc1ccc2[nH]c(=O)c(CN(c3ccccc3)S(=O)(=O)c3ccccc3)cc2c1
    100 | nt | 91 | 86
[47] CCCSc1nc2sc3c(c2c(=O)n1-c1ccccc1)CC(C)(C)OC3
    96 | -16 | nt | nt
[48] CCN1CCCC1CNC(=O)c1cnn2c3c(cnc12)CCCCCC3 (stereo unspecified)
    104 | 1 | nt | nt
[49] CCC(=O)N1CCc2cc(S(=O)(=O)NCCC(=O)Nc3ccc(CC)cc3)ccc21
    102 | -24 | 106 | 88
[50] CCn1c(=O)c(C)nc2cc(C(=O)Nc3ccc4c(c3)OCCCO4)ccc21
    nt | -44 | 96 | 87
[51] C=CCNC(=O)Cc1ccccc1OC
    99 | -10 | 106 | 99
[52] Cc1ccc(CN2CCc3c(Br)cccc3C2)cc1
    102 | -14 | nt | nt
[53] CCc1ccc(C2C3=C(CC(C)(C)CC3=O)Nc3onc(C)c32)cc1 (stereo unspecified)
    106 | -15 | nt | nt
[54] O=C(NOCC1CC1)c1cc(Br)c(F)c(F)c1Nc1ccc(I)cc1Cl
    104 | -5 | nt | nt
[55] Nc1nc(-c2ccco2)nn1S(=O)(=O)c1ccccc1
    102 | -5 | 101 | 89
[56] CCC(C)NC(=O)CSc1ccc(S(=O)(=O)N2CCN(Cc3ccccc3)CC2)cn1 (stereo unspecified)
    nt | -17 | 86 | 85
[57] COc1ccc(-c2nsc3c(N4CCCCC4C)ncnc23)cc1 (stereo unspecified)
    103 | -9 | 121 | 85
[58] Cc1ccc(Cl)cc1N1CCN(C(=O)C2CCN(S(=O)(=O)c3cccc4nonc34)CC2)CC1
    115 | -13 | 103 | 102
[59] CN(C)c1ccc(-c2nc3c4ccccc4ncn3n2)cc1
    99 | -19 | nt | nt
[60] CCC(C)NC(=O)CSc1nc2n[nH]c(C)c2c(=N)n1-c1ccc(C)c(Cl)c1 (stereo unspecified)
    104 | nt | 111 | 99

Further compounds
Each structure is followed by: GIV-Gai inh | HCMV NEC inh | Sa growth inh | Sa growth inh second temp
[61] CCOc1ccc(NS(=O)(=O)c2cc(C(=O)Nc3ccc(C)c(C)c3)n[nH]2)cc1
    101 | -6 | nt | nt
[62] COc1ccc(NS(=O)(=O)c2ccc3c(c2)OCC(=O)N3)cc1
    107 | nt | 99 | 89
[63] CC(=O)c1cccc(NC(=O)c2noc3c2CC(C)CC3)c1 (stereo unspecified)
    103 | nt | 107 | 81
[64] CC1(C)CC(=O)c2cc(OCC(=O)NC3CCCC3)ccc2O1
    102 | nt | 124 | 85
[65] Cn1nnc2cc(C(=O)Nc3ccc(F)cc3F)ccc21
    102 | -2 | nt | nt
[66] Cc1cc(C)cc(-n2c(C)cc(/C=C3\SC(=O)NC3=O)c2C)c1
    107 | nt | 64 | 64
[67] Cc1c(C(=O)N2CCC(C(=O)N3CCN(c4ccccc4)CC3)CC2)oc2cc3sc(N(C)C)nc3cc12
    100&105 | -16&3 | 102 | 90
[68] O=c1[nH]c(=O)n([C@H]2C[C@H](O)[C@@H](CO)O2)cc1F
    104 | -26 | -0.6* | -0.2*
[69] CCn1cc(C(=O)NCc2ccccc2Cl)c(=O)c2cc(S(=O)(=O)N3CCCCC3)ccc21
    99 | 2 | 99 | 94
[70] CN(Cc1ccccc1)C(=O)CSc1nc2ccc(Br)cc2c2nc3ccccc3n12
    99 | nt | 90 | 90
[71] COc1cccc(CNC(=O)C2CCN(c3nn4c(=O)cc(C)nc4s3)CC2)c1
    109 | -18 | 110 | 87
[72] Cc1cccc(Cl)c1-c1nn[nH]n1
    101 | 1 | 115 | 88
[73] COCC(C)N=C1NN=C(c2cc(C)n(-c3c(C)n(C)n(-c4ccccc4)c3=O)c2C)CS1 (stereo unspecified)
    nt | -15 | 118 | 79
[74] O=C(NCc1ccc2c(c1)OCO2)c1ccc(CN2C(=O)CCn3nc(-c4ccccc4)cc32)cc1
    102 | -15 | nt | nt
[75] O=C(C1CC(c2ccccc2F)=NO1)N1CCOCC1 (stereo unspecified)
    97 | -20 | nt | nt
[76] O=C(NCCc1csc(-c2ccc(C(F)(F)F)cc2)n1)C(=O)Nc1cc(F)ccc1F
    97 | nt | 105 | 87
[77] O=C(CCSCc1cnn(-c2ccccc2)c1-n1cccc1)N1CCN(c2ccccn2)CC1
    98 | 5 | nt | nt
[78] CC1CCCC(NC(=O)COC(=O)/C=C/c2ccco2)C1C (stereo unspecified)
    nt | -2 | 102 | 101
[79] Cn1cc(C(=O)Nc2cccc(Br)c2)c2[nH]c(=O)n(-c3ccc(F)cc3)c(=O)c21
    98 | -25 | nt | nt
[80] CC1CC(=O)Nc2ccccc2N1S(=O)(=O)c1ccc(-c2cc(C(F)(F)F)on2)s1 (stereo unspecified)
    100 | 17 | 96 | 94
[81] CCOC(=O)C1=C(CN2CCN(c3ccc(OC)cc3)CC2)NC(=O)NC1c1ccc(OC)cc1 (stereo unspecified)
    110 | nt | 80 | 68
[82] CC1CCN(S(=O)(=O)c2ccc3c(ccn3CC(=O)NCc3ccccc3)c2)CC1
    103&100 | -12 | 97 | 85
[83] Cc1cc(C)cc(Nc2ncnc3nc[nH]c23)c1
    105 | -32 | 88 | 76
[84] NC(=O)C1=C(Nc2ccc(Cl)cc2)c2ccccc2S1(=O)=O
    100 | -10 | nt | nt
[85] O=C(Cc1ccc(-c2ccccc2)cc1)NCc1nc(-c2ccccc2)no1
    99 | -10 | 104 | 80
[86] CC(C)Cc1ccc(S(=O)(=O)NCc2nc3cccnc3n2Cc2ccccc2)cc1
    105&118 | nt | 100 | 106
